Screening data deposited in PubChem by several laboratories.
Calb FLC = C. albicans growth modulation with fluconazole. C. albicans CaCi-2 (fluconazole-resistant clinical isolate) + fluconazole, Alamar Blue growth, 48 h. growth inhibition, % (test concentration not listed). 300,000 tested, 0.57% active;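 active = most replicates above 75%; inconclusive = exactly half above 75%; inactive = most below 75%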;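 also: all wells also contain fluconazole at 8 µg/ml as a sub-toxic cotreatment; 0% = median of DMSO wells and 100% = median of geldanamycin control wells; wells of about 8 µL received 7.5 nL stock; the first replicate is given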
LANA-H2A inh = blocks KSHV LANA binding to histone H2A/H2B; AID 2629; inhibition, % (concentration not given with the values); 320,000 tested, 0.6% active; Q9QR71; cell-free LANA-H2A/H2B peptide, fluorescence polarization; in the data active = inhibition mostly above about 10%, no sharp cut-off; inactive = mostly below about 6.7%;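 also: stock transfer was 7.5 nL into about 10 µL; 0% = median of vehicle wells and 100% = median of positive control wells; one replicate is shown; the record names a cut of 25% in any replicate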
RanGTP-Impb inh = inhibitors of RanGTP-importin-beta interaction, primary screen, biochemical, FRET, CFP-Ran, YFP-importin-beta, homogeneous; cell-free CFP-Ran/YFP-importin-beta FRET ratio; inhibition, % (no concentration beside the values); 300,000 tested, 1.1% active;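 active = most replicates above 15%; inconclusive = exactly half above 15%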;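 also: 0% = DMSO wells and 100% = Ran loaded with GDP instead of GTP; wells of about 40 µL received 100 nL stock; the first replicate is given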
B2AR ag = human beta-2 adrenergic receptor agonism by FAP | 340,000 tested, 0.43% active | Am2.2-beta2AR cells, FAP receptor internalization, flow cytometry; reference of the scale not given here | AID 504454 | P07550 | response, % (no concentration beside the values);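 active = response above a set limit, near 3 SD of response in nonfluorescent compounds, cut at about 42% in these data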;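 also: stock transfer was 100 nL into about 11 µL; a reference agonist was the positive control; negative values mostly stem from fluorescent compounds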
Target sequence (P07550 whole entry, looked up): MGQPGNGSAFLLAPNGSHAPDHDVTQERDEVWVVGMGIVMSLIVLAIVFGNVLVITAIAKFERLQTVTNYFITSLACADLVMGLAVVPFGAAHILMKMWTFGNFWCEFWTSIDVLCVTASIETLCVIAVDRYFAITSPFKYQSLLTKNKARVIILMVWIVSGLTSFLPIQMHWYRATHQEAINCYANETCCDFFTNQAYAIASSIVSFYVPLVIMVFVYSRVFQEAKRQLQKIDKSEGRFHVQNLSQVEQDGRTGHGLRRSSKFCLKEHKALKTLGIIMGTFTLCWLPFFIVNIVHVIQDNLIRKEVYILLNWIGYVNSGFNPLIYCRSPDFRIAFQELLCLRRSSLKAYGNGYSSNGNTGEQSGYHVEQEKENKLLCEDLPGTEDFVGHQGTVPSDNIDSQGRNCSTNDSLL
ALR inh = inhibitors of human sulfhydryl oxidase ALR; P55789; purified ALR, DTT oxidation, H2O2 HRP-luminol luminescence; inhibition, % (test concentration not listed); 290,000 tested, 3.8% active; AID 485317;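 active = mean and each replicate at 75% or more; inconclusive = only one of the two met; inactive = neither met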;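 also: stock transfer was 7.5 nL into about 7.5 µL; 0% = neutral wells and 100% = wells with inactivated enzyme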
Target sequence (P55789 whole entry, looked up): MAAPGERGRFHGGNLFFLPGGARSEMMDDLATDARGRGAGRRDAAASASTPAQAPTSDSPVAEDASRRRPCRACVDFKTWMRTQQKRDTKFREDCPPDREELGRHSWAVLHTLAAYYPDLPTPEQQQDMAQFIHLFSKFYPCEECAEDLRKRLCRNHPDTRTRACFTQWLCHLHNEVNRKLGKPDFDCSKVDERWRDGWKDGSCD
HNF4A DNA FP = change in binding of human HNF4 alpha to DNA; P41235; HNF4a-FITC DNA binding, fluorescence polarization, 1 h; activity change, % at 10 µM; 360,000 tested, 0.3% active; AID 1224865; in the data active = activity change above about 30%, passing the limit was not always enough;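 also: controls were the assay level and a saturating level of protein; the project sought stronger binding though the title names inhibitors; some compounds called inactive have numbers as strong as hits; positive values seem to mean higher polarization but the record does not say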
Target sequence (P41235 whole entry, looked up): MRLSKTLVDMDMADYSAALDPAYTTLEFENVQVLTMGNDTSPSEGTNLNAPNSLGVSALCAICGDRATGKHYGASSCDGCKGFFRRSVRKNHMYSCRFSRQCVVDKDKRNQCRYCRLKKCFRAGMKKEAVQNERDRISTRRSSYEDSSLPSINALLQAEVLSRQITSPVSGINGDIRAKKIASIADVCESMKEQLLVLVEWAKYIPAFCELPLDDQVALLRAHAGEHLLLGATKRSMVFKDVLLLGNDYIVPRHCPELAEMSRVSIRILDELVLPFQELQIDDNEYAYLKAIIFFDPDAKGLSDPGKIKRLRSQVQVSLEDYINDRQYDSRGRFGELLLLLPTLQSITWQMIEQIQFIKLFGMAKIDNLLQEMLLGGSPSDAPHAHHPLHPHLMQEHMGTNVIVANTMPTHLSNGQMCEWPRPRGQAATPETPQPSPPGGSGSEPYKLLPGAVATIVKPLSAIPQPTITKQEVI
Vif A3G = inhibitors of Vif binding to APOBEC3G peptide, primary screen, biochemical, TR-FRET, GST-Vif 1-94, biotin-A3G peptide, dose response retest (AID 1117319); TR-FRET GST-Vif / biotin-A3G peptide binding; higher % means a stronger effect; test concentration not given here; strong numbers were not always called active; one-dose inhibition, %; IC50 in µM for titrated hits; 260,000 tested, 0.57% active;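 active = above the screen mean plus three standard deviations and confirmed in dose response; inconclusive = results disagree or hit not tested in dose response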;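 also: Vif residues 1-94 fused to GST binding biotinylated APOBEC3G peptide 110-148; 0% = full assay without inhibitor and 100% = GST in place of GST-Vif; retest series ran down from 100 µM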
* hit, by the source's call; ? = inconclusive; · = not tested or not shown; & = joins results of further samples.

SMILES	Calb FLC	LANA-H2A inh	RanGTP-Impb inh	B2AR ag	ALR inh	HNF4A DNA FP	Vif A3G
CCOC(=O)c1cc(S(=O)(=O)N2CCN(Cc3ccccc3)CC2)cn1C	-7	5.5	0.1	-1	-6	0.7	·
CN1CCN(c2ccc(S(=O)(=O)N3CCCCC3)cc2NC(=O)COc2cccc(Cl)c2)CC1	-4	2.1	13	33	-38	2.0	2%
CC(C)(C)SCCNC(=O)/C=C/c1ccc([N+](=O)[O-])cc1	-24	1.6	?	-2	-22	0.6	·
Fc1ccccc1-n1cn[nH]c1=S	23	0.1	-2.3	3	-50	2.5	2%
O=C(CSc1nnc(-c2ccncc2)n1Cc1ccco1)Nc1ccccc1Cl	-3	-2.7	-1.9	-6	·	-2.8	-1%
Cc1cccc(C)c1N1CCc2cn[nH]c21	-1	3.5	1.2	-3	67	4.1	6%
Cc1onc(-c2ccccc2Cl)c1C(=O)N(Cc1nc(-c2ccccc2)no1)C1CCCCC1	8	-0.2	-0.9	-6	-3	-4.0	0%
CC(C)CNC(=S)NNC(=O)c1csc2c1CCC(C)C2 (stereo not given)	-14	-5.3	5.4	0	7	1.2	-1%
CC(=O)Nc1ccc(NC(=O)CSc2ccc(-c3sc(C)nc3C)nn2)cc1	-1	3.0	1.3	7	-12	2.3	4%
CCO[C@H]1OC(C(=O)Nc2ccccc2)=C[C@@H](c2cn(C(C)=O)c3ccccc23)[C@@H]1CCCO	21	-1.5	2.6	-14	·	3.8	26%
O=C(Cc1cn(Cc2cccc(Cl)c2)c2ccccc12)N1CCCC1	-10	-1.2	1.7	-8	-4	3.7	·
O=C(NC(=S)N1CCOCC1)C12CC3CCC(CC(C3)C1)C2	-34	0.4	0.4	2	-12	-0.1	-2%
CCOC(=O)c1ccc(Nc2nnc(C)c3ccccc23)cc1	1	2.5	2.4	-7	6	5.8	-9%
CCOc1ccc(NS(=O)(=O)c2ccc(NC(=O)c3ccccn3)cc2)cc1	·	-4.7	·	7	0	-3.3	4%
CCN(CC)C(=O)Cn1ncc2c1-c1ccccc1OC2	5	-2.5	6.8	5	-13	0.0	-1%
COCc1cc(=O)[nH]c(-c2ccccc2)n1	-1	1.0	·	-13	-2	1.1	30%
CC(C)n1c(-c2cccs2)nc2ccccc21	-1	1.2	-3.9	1	-15	1.1	-3%
c1ccc(-n2c(-c3ccncc3)nnc2N2CCOCC2)cc1	-15	-3.1	4.1	-2	-4	0.0	31%
COc1cc2[nH]c(=S)n(CCN3CCCCC3C)c(=O)c2cc1OC (stereo not given)	-10	-1.0	-1.2	12	21	1.9	4%
CCOC(=O)NC(C(Cl)(Cl)Cl)S(=O)(=O)c1ccccc1 (stereo not given)	12	-4.0	2.0	-7	11	4.0	?
CC(C)[C@H]1C(=O)Nc2ccccc2N1C(=O)N[C@@H](Cc1ccccc1)C(=O)N[C@H](C(=O)O)c1ccccc1	-9	2.8	2.7	15	·	4.2	·
COc1cc(OC)c(C(=O)Nc2ccncc2)cc1OC	8	-1.1	7.9	4	-11	-3.3	·
COc1cc(C(=O)NCC(=O)N2CCN(S(=O)(=O)c3cc(C)ccc3C)CC2)cc(OC)c1OC	2	0.8	-3.4	17	1	3.2	·
O=C(CCN1C(=O)c2ccccc2S1(=O)=O)Nc1cccc2ccccc12	-8	-4.3	-4.1	-3	4	-2.8	2%
CC(C)C1S/C(=N/N=C/c2cccs2)NC1=O (stereo not given)	36	-12	0.0	2	-12	-0.3	9%
N#Cc1nc(COc2ccc(-c3ccccc3)cc2)oc1NCc1cccnc1	8	-1.8	4.0	6	1	-0.8	-1%&5%
CC1CC(Nc2ccccc2N)=CC(=O)O1 (stereo not given)	4	-4.3	-4.9	7	86*	-3.3	0%
CC1CCCN(C(=O)c2nn(C)c3c2CS(=O)(=O)c2ccccc2-3)C1 (stereo not given)	-1	-10	3.8	0	-12	0.9	·
Cc1ccccc1C(=O)Nc1ccccc1N1CCCCC1	5	-2.7	-0.7	-1	-12	2.0	·
Cc1[nH][nH]c(=O)c1C(c1ccc(N(C)C)c(Br)c1)c1c(C)[nH][nH]c1=O	-1	60*	2.2	4	17	-0.1	13%
Cc1cc(C)nc(N(C#N)Cc2ccccc2)n1	9	3.4	2.4	19	-10	1.1	?
O=C(Nc1cccc(C(=O)N2CCOCC2)c1)c1ccccc1Br	2	1.6	-1.5	-3	0	1.8	5%
CC(NC(=O)Cn1nc(C(=O)O)c2ccccc2c1=O)C12CC3CC(CC(C3)C1)C2 (stereo not given)	-8	-1.9	-0.6	-2	0	2.9	·
O=C(O)CCNC1CCCCC1	-1	-5.2	0.0	-4	-1	-0.6	25%
Cc1c(O)ccc2c(O)c(NC(=O)c3ccc4c(c3)CCC(C)(C)O4)c(=O)oc12	6	-5.9	3.9	-3	74	-1.3	-1%
Cc1cc(NC(=O)CCC(=O)N(CC(=O)NCC2CCCO2)c2ccc(C(C)C)cc2)no1 (stereo not given)	3	3.7	-3.2	4	6	-0.2	·

The final two entries of the part before are carried over, then new ones follow.
SMILES	Calb FLC	LANA-H2A inh	RanGTP-Impb inh	B2AR ag	ALR inh	HNF4A DNA FP	Vif A3G
Cc1c(O)ccc2c(O)c(NC(=O)c3ccc4c(c3)CCC(C)(C)O4)c(=O)oc12	6	-5.9	3.9	-3	74	-1.3	-1%
Cc1cc(NC(=O)CCC(=O)N(CC(=O)NCC2CCCO2)c2ccc(C(C)C)cc2)no1 (stereo not given)	3	3.7	-3.2	4	6	-0.2	·
COc1ccc(NC(=O)C2CCCN(S(=O)(=O)c3ccc4c(c3)CCCN4C(C)=O)C2)cc1 (stereo not given)	-14	12	4.2	2	-6	-5.6	·
C=CCNC(=S)NS(=O)(=O)c1cccs1	14	3.0	1.8	11	-5	-2.6	0%
O=S(=O)(c1ccc(Br)cc1)c1nc(-c2ccco2)oc1NCCCn1ccnc1	·	·	·	-12	·	1.6	0%
Oc1cc(OCc2ccccc2)ccc1-c1[nH]ncc1-c1ccccc1	10	2.6	-1.6	4	·	0.7	-2%
CC(C)CSC1=NSC2=NC(=O)/C(=C\c3ccccc3)C(=N)N12	57	·	4.7	3	·	-1.2	·
Cc1nc2ccccc2nc1OCc1ccccc1	-17	-3.3	-2.5	2	-3	3.2	·
COc1ccc(OC)c(NS(=O)(=O)c2cc3c4c(c2)CCN4C(=O)CC3)c1	-2	·	-3.6	-14	·	1.3	2%
CCNC(=O)C1CCCc2c1[nH]c1ccc(Cl)cc21 (stereo not given)	-46	5.2	1.4	4	52	-2.0	6%
N#Cc1ccc(OCC(=O)N(C2CCCCC2)C2CCS(=O)(=O)C2)cc1 (stereo not given)	·	0.7	·	-4	-2	3.4	·
O=C(OCC(=O)c1ccc(Cl)cc1Cl)c1ccc2c(c1)C(=O)N(c1cccc3ncccc13)C2=O	?	0.6	-2.4	1	-8	-0.2	13%
CCCS(=O)(=O)N1CCC(C(=O)NC2CCCC(C)C2C)CC1 (stereo not given)	·	-0.7	2.6	8	-3	1.8	0%
CC(=O)c1sc(NC(=O)C(C)C)nc1C	0	-3.0	5.3	3	-4	-0.7	-17%
COc1ccc(OC)c2[nH]c(=O)c(CCNC(=O)Cc3cccs3)cc12	-2	0.9	-0.7	3	-26	2.5	4%
Cc1c(Cl)c([N+](=O)[O-])nn1CC(=O)NCC1CCCO1 (stereo not given)	-3	-0.5	-3.7	3	-24	5.9	·
COc1cc(C2=NOC(C(=O)Nc3c(C)n(C)n(-c4ccccc4)c3=O)C2)cc(OC)c1OC (stereo not given)	-4	2.6	4.7	-5	·	-3.8	-7%
COCCn1c(Cc2ccccc2)nnc1SC(C)C(=O)NC1CC1 (stereo not given)	·	3.1	·	-6	-7	-1.7	-3%
COc1cc2nc(SCc3ccc(C(F)(F)F)cc3)n(Cc3cccs3)c(=N)c2cc1OC	-8	-2.9	-0.9	1	-9	1.2	-25%
CCc1ccc(OCC(=O)N(CC)CC)cc1	-27	-2.2	-2.9	4	0	-2.5	-5%
Cc1ccccc1Nc1nnc(SCC(=O)c2c(N)n(C)c(=O)n(C)c2=O)s1	9	-0.8	4.1	10	-6	-0.6	-2%
CCCn1c(N2CCN(Cc3cccc(C)c3)CC2)nc2c1c(=O)[nH]c(=O)n2C	-7	-0.3	?	1	·	0.9	21%
O=C(Oc1ccc(N(Cc2cccs2)C2=NS(=O)(=O)c3ccccc32)cc1)c1ccco1	-3	-1.9	-4.1	2	·	-0.1	6%
Cc1nn(CCC#N)c2[nH]c(=O)cc(C(F)(F)F)c12	?	0.4	?	-7	0	-0.9	13%
CCN1CCN(c2ccc(S(=O)(=O)N3CCOCC3)cc2NC(=O)c2cc(Cl)nc3ccccc23)CC1	16	-6.3	-2.1	-2	-8	4.4	-4%
CC(C)N(C(=S)NC1CCCCC1)c1ccccc1	21	-1.8	2.1	·	1	·	1%
O=C(Nc1nccs1)c1ccc(F)c(S(=O)(=O)N2CCOCC2)c1	4	2.3	5.5	3	-17	2.9	-3%
CCCCN(C(=O)c1cccc(-n2cccc2)c1)c1c(N)n(CCC)c(=O)[nH]c1=O	-3	-3.4	1.2	0	-10	-9.1	31%
COc1ccc(OC)c(C2=NOC(C(=O)Nc3ccccc3SC)C2)c1 (stereo not given)	11	-0.3	1.8	6	45	2.4	-3%
CC(C(=O)NC1=NCCS1)N1C(=O)c2ccccc2C1=O (stereo not given)	-6	1.8	2.7	-2	3	2.6	-8%
CCOc1ccc(CCNC(=O)C2CC(=O)N(Cc3ccc(C)cc3)C2)cc1OCC (stereo not given)	-5	-10	?	-8	-7	-7.2	-1%
COc1ccc(C(=O)CSc2nncn2C)cc1	-29	-12	-2.4	5	15	3.0	7%
CC(C)n1c(SCc2cc(=O)[nH]c3ccccc23)nc2c1c(=O)n(C)c(=O)n2C	-8	-8.0	-3.4	-10	-6	-3.0	·
CC(=O)Oc1ccc2cc(-c3cccnc3)c(=O)oc2c1	·	·	·	6	·	0.2	-7%
Cc1ccccc1OCC(=O)Nc1cccc2nsnc12	-2	2.1	3.7	0	-6	1.7	14%
O=C1CC(N2CCC(c3nc4ccccc4o3)CC2)C(=O)N1c1cc(Cl)cc(Cl)c1 (stereo not given)	11	-2.2	3.2	-4	-2	1.2	21%
O=C1c2ccccc2C(=O)C1c1ccc2ccccc2n1	-18	1.3	-5.1	-2	-7	5.1	1%
Cc1cc(=O)n2nc(N3CCCC(C(=O)NCc4ccccc4)C3)sc2n1 (stereo not given)	9	-1.6	1.5	-7	-6	-1.7	·
CCOc1ccccc1N(CC(=O)O)S(=O)(=O)c1ccccc1	·	-4.9	·	18	1	-0.8	-4%
O=C(NN1CCCCC1)c1cccc2ccccc12	4	-2.2	2.3	4	·	1.4	9%
COc1cccc(NC(=O)CSc2ccc3nnc(-c4ccncc4)n3n2)c1	-1	-3.9	0.1	5	-1	0.2	-10%
Cc1c(C)n(CCCN(C)C)c2ncnc(NCc3ccccc3)c12	-2	4.0	-10.0	4	-4	1.8	-10%
CCN(CC)C(=O)n1cnc(-c2ccccc2)c1-c1ccccc1	3	-4.8	5.7	1	2	-0.3	1%
O=S(=O)(Cc1ccc(Cl)cc1)NCc1cccnc1	4	-2.8	-4.1	-6	-7	3.1	·
O=S(=O)(NCCn1ccc2ccccc21)c1ccccc1	-6	-2.4	-3.6	0	·	-0.4	-3%
Cc1ccc(C)c(NC(=O)c2nc(Cl)ccc2Cl)c1	0	4.8	2.1	-9	·	-0.4	-4%
COc1ccc(NC(=O)N(C)C[C@H]2Oc3ccc(NC(=O)NC4CCCCC4)cc3C(=O)N([C@H](C)CO)C[C@@H]2C)cc1	·	9.3	·	-2	-10	2.1	·
CC(=O)Nc1cc(N2C(=O)CCC2=O)ccc1Cl	7	2.2	?	-1	·	-2.6	30%
